Mtb betalactam – beta-lactam sensitization of Mtb H37Rv, H37Rv | 0.27% of 330,000 active | M. tuberculosis H37Rv growth with meropenem, percent inhibition; hits of this screen are not shown here | inhibition, % at 25 µM;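 active = about 74% or more and at least 40 points above the plate without the antibiotic, then above 30% in a dose series; inconclusive = first-round hits that could not be retested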;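 note: growth measured after seven days incubation then overnight dye step; 0% = bacteria only wells and 100% = bacteria with antibiotic; twin plates without the antibiotic show which effects depend on it; some results filed as inactive read as strong as hits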
Mtb growth – M. tuberculosis H37Rv growth inhibitors, H37Rv strain (AID 1626); M. tuberculosis H37Rv growth inhibition; higher % means a stronger effect; inhibition, % at 10 µM; hits with a dose series show IC50 in µM; 0.95% of 220,000 active;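 active = confirmed in a dose series; inconclusive = inhibition above 80% but not taken into the dose series; inactive = below 80% or under 30% at every dose of the series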;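 note: bacteria incubated seven days before Alamar blue readout; 0% = bacteria only wells and 100% = bacteria with antibiotic wells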
YopH inh – YopH tyrosine phosphatase inhibitors, primary screen, biochemical, fluorescence Ex485/Em525; inhibition, %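 (about 10 µM by stock and volumes)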; 0.16% of 140,000 active;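 active = inhibition of 50% or more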;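 note: controls were vehicle for no effect and minimum signal wells for full effect; inactives centre near -20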
Arbovirus anti – antivirals against arbovirus infection, primary screen, cell-based, full library, 10K replicate subset. arbovirus infection cell-based antiviral screen. inhibition, % at 10 µM. 0.37% of 200,000 active. AID 1251, 2008;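 active = inhibition from about 30%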;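 note: bluetongue infection of BSR cells; cell survival read as ATP light after 72 h; 0% = infected wells without compound and 100% = uninfected wells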
RecA splice inh – Mtb RecA intein splicing inhibitors, primary screen, biochemical, fluorescence, HTS | cell-free RecA intein splicing | Protein RecA (Mycobacterium tuberculosis (strain ATCC 25618 / H37Rv)), P9WHJ3 | inhibition, %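 (about 9 µM by stock and volumes)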 | 0.75% of 290,000 active; in the data active = inhibition above about 30%; inconclusive = no clear call, values can overlap the other calls;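 note: 0% = vehicle wells and 100% = reference inhibitor control wells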
Target sequence (P9WHJ3 whole entry, looked up, canonical isoform): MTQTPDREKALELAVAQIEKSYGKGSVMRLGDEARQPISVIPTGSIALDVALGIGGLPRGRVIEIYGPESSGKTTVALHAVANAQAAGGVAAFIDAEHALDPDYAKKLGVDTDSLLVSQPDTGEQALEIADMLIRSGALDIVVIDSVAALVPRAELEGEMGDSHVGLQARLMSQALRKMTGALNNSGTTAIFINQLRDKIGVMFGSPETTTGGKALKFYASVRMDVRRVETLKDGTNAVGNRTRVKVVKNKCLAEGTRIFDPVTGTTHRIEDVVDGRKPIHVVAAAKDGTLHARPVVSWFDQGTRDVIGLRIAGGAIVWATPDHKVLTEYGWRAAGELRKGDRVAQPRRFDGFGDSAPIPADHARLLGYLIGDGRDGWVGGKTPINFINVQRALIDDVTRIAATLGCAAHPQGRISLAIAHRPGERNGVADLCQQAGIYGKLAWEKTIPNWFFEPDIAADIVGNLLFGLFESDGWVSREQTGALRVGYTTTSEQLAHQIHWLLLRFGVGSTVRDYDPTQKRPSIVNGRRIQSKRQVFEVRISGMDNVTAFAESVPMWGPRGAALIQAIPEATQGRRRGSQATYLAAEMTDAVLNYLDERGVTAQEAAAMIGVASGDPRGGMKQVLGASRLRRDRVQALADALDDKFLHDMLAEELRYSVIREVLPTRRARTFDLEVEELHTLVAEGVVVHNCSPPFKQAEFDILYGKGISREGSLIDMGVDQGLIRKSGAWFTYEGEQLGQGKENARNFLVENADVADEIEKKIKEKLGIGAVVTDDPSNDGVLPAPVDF
Arbovirus anti repeat – second read-out of Arbovirus anti, no call of its own (marks repeat the call); inhibition, %; measured here: 10K subset replicate screen; many hits read low in the repeat;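 first of two repeat runs on a subset; 0% = infected and 100% = uninfected wells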
Active calls of the source: *; ? = inconclusive; . = no result given. Only part of the results is shown, so the mix of outcomes need not match the whole.

The first 5 entries as a preview:
SMILES | Mtb betalactam | Mtb growth | YopH inh | Arbovirus anti | RecA splice inh | others
Cn1c(=O)c2c(SCc3c(F)cccc3Cl)nc(CC(C)(C)C)nc2n(C)c1=O | -1 | 7% | -35 | -16 | 4.9
Cc1ccc(S(=O)(=O)N2CCC(C(=O)OCC(=O)N3CCc4ccccc43)CC2)cc1 | 6 | -14% | -26 | 6 | -5.8
COC(=O)c1ccccc1-c1ccc(/C=N/NC(N)=O)o1 | 6 | 2% | . | . | -3.0
c1ccc(-c2nnnn2-c2ccccc2)cc1 | -4 | . | . | . | 0.5
CCOC(=O)C1(C)C=C(Nc2ccccc2)C(=O)N1c1ccccc1 (stereo unspecified) | -2 | -8% | . | -6 | 4.4

This part in full (from the top)
SMILES | Mtb betalactam | Mtb growth | YopH inh | Arbovirus anti | RecA splice inh | others
Cn1c(=O)c2c(SCc3c(F)cccc3Cl)nc(CC(C)(C)C)nc2n(C)c1=O | -1 | 7% | -35 | -16 | 4.9
Cc1ccc(S(=O)(=O)N2CCC(C(=O)OCC(=O)N3CCc4ccccc43)CC2)cc1 | 6 | -14% | -26 | 6 | -5.8
COC(=O)c1ccccc1-c1ccc(/C=N/NC(N)=O)o1 | 6 | 2% | . | . | -3.0
c1ccc(-c2nnnn2-c2ccccc2)cc1 | -4 | . | . | . | 0.5
CCOC(=O)C1(C)C=C(Nc2ccccc2)C(=O)N1c1ccccc1 (stereo unspecified) | -2 | -8% | . | -6 | 4.4
CN(C(=O)c1ccc(OC2CCN(Cc3ccccn3)CC2)cc1)C1CCCCC1 | 7 | . | . | . | -1.3
Cc1ccn2cc(CCNC(=O)COc3ccccc3)nc2c1 | -2 | -8% | . | . | 0.7
CC1CCN2c3nc4ccccn4c(=O)c3CC3(C(=O)N(C)C(=O)N(C)C3=O)C2C1 (stereo unspecified) | 4 | -6% | -26 | 13 | .
COCCNC(=O)CSc1nc2cc(OC)c(OC)cc2c(=O)n1CCC1=CCCCC1 | . | 3% | -1 | 5 | 0.2
CCc1ccc(N2C(=O)CN(CC(=O)OC)C2=S)cc1 | -4 | 3% | . | 3 | 1.3
COc1cc(OC)c(C2N(c3ccc(Cl)cc3)C(=O)C3CCCN32)cc1OC (stereo unspecified) | 3 | -3% | -43 | 8 | 0.8 | Arbovirus anti repeat=-1
O=C(CCS(=O)(=O)c1ccccc1)N1CCN(c2cccc(C(F)(F)F)c2)CC1 | -14 | . | . | . | -0.4
O=C(NCc1ccc2c(c1)OCO2)C1CCCN1S(=O)(=O)c1ccc(F)cc1 (stereo unspecified) | 0 | 1% | . | . | 1.3
Cc1cccc(Nc2nc(C)nc3c2oc2ccccc23)c1 | ? | . | . | . | 3.5
COC(=O)CNC(=O)CSc1nnc(C)c(=O)[nH]1 | 5 | -8% | -23 | -6 | -0.7
Cc1occc1C(=O)NNS(=O)(=O)c1ccc([N+](=O)[O-])cc1 | 5 | . | . | . | -4.0
CCOc1ccc(C(=O)NC2CCN(C(=O)Nc3ccc(F)cc3)CC2)cc1 | -2 | . | . | . | 0.9
COc1ccc2cc3cc(C(=O)N4CCN(c5ccccn5)CC4)oc3nc2c1 | 19 | . | . | . | -0.5
Cc1cc(Nc2ccc(C)c(C)c2)c2ccccc2n1 | 4 | . | . | . | 0.7
NS(=O)(=O)c1ccc(NC(=S)NC(=O)c2ccc3c(c2)OCO3)cc1 | 2 | 4% | . | 1 | -6.0
CN1CCN(S(=O)(=O)c2ccc(NC(=O)COc3ccccc3)cc2)CC1 | 6 | . | . | 7 | -1.9
CCNC(=O)N1CCC(n2nccc2NC(=O)CCCc2ccccc2)CC1 | -4 | . | . | . | 1.1
Cc1ccc(C)c(N2N=C(C(=O)Nc3ccc(S(=O)(=O)N4CCCC4)cc3)CCC2=O)c1 | 0 | 2% | . | . | 0.1
Cc1ccc(C(=O)N/C(=C\c2ccccc2)C(=O)NCc2cccnc2)cc1 | -2 | 7% | . | 25 | 4.4
CCC1CCCCN1S(=O)(=O)c1ccc(NC(=O)c2cccnc2)cc1 (stereo unspecified) | -8 | . | . | . | 0.2
Cc1ccc(C)c(NC(=O)CCc2ccc(S(=O)(=O)NC3CCCCC3)cc2)c1 | 4 | ? | -6 | 0 | -2.5
Cc1ccc(N2C(=O)NC(NS(=O)(=O)c3ccc(C)cc3)(C(F)(F)F)C2=O)cc1 (stereo unspecified) | 2 | . | . | . | 1.6
CCOc1cc2c(cc1OCC)-n1cccc1C(c1ccccc1O)NC2 (stereo unspecified) | 10 | . | . | . | 1.5
O=C(/C=N/O)Nc1ccccc1 | 4 | -8% | -51 | -4 | 1.5
COC(=O)C1CCN(C(c2ccc(OC)c(OC)c2)c2sc3nc(C)nn3c2O)CC1 (stereo unspecified) | -2 | 2% | -1 | 4 | -0.3 | Arbovirus anti repeat=3
COc1cccc(NC(=O)c2nn(C)c(C(=O)Nc3cccc(OC)c3)c2[N+](=O)[O-])c1 | -19 | . | . | . | -1.3
O=C(COC(=O)c1ccc(O)cc1)Nc1cccc(S(=O)(=O)N2CCCCC2)c1 | -5 | -9% | . | . | 2.9
COc1ccccc1/C=N/NC(=O)c1nnn(-c2nonc2N)c1CSC1=NCCS1 | 5 | 4% | -27 | -4 | 15
COc1ccc(CNS(=O)(=O)c2cc3c(cc2C)N(C)CCO3)cc1 | -2 | . | . | . | -1.4
O=C(NCC1CC1)c1ccc(Nc2nc3ccc(Br)cc3[nH]2)cc1 | -6 | -9% | -24 | -8 | 7.1
CC1CCCCN1C(=O)c1cccc(NC(=O)c2ccccc2)c1 (stereo unspecified) | 6 | -3% | . | -2 | -4.2
O=C(NC1CCCC1)C1CCC(=O)N1C1CCCC1 (stereo unspecified) | 6 | -8% | -24 | -4 | 0.3
O=C(Nc1cc(C(F)(F)F)ccc1N1CCOCC1)c1cccnc1Cl | -14 | -3% | -8 | 5 | -0.6
CCN(CC(=O)Nc1ccccc1C(F)(F)F)C(=O)c1cc(-c2ccccc2)nn1-c1ccccc1 | 6 | . | . | . | 3.2
OC(CNCc1ccccc1)Cn1ccc2ccccc21 (stereo unspecified) | -2 | 0% | -22 | 1 | 2.1
Cc1ccccc1C(=O)N1CCN(c2ccc(NC(=O)c3ccc4c(c3)OCCO4)cc2)CC1 | -9 | . | . | . | -8.1
O=C1c2ccccc2C(=O)N1CCCc1c[nH]c2ccccc12 | -10 | 45% | -21 | 2 | 4.5
CCOC(=O)N1CCC(Nc2nc(OC)nc(OC)n2)CC1 | 12 | -10% | -39 | 6 | .
Cn1cc(CN2CCC(C(=O)Nc3cccc(-c4cscn4)c3)CC2)cn1 | -7 | . | . | . | -2.5
CCN(CC(=O)Nc1c(F)cccc1F)C(=O)/C=C/c1ccc(Br)s1 | 0 | . | . | . | -8.5
O=C(NNC(=S)Nc1ccccc1Cl)c1ccccc1 | 1 | . | . | . | -0.6
O=C(Nc1ccc(C(=O)Nc2ccccc2Cl)cc1)c1cccnc1 | -1 | . | . | . | -1.2
O=C(CCCCn1c(=O)[nH]c2ccsc2c1=O)NCCc1ccccc1 | -1 | 3% | . | 5 | 2.5
COC(=O)CSc1nc2ccc(N)cc2s1 | 94 | ? | . | 0 | 26
Cc1cccnc1-n1c(-c2ccco2)nc2ccccc2c1=O | -15 | 1% | -20 | -6 | 3.5 | Arbovirus anti repeat=-1
Cc1ccc(C(=O)NCC(=O)OCC(=O)NC2CCCC(C)C2C)s1 (stereo unspecified) | 7 | -2% | . | 15 | 1.1
CCSc1nnc(NC(=O)c2cnccn2)s1 | 5 | 2% | . | . | 0.9
COCc1nnc(NC(=O)c2ccc(S(=O)(=O)N(C)Cc3ccccc3)cc2)o1 | 0 | . | . | . | -1.4
CC1(c2nnc(-c3ccc(F)cc3)o2)CC(c2cccnc2)=NO1 (stereo unspecified) | -12 | -10% | . | . | -1.4
CC1(C)CC2(CCO1)CNC(=O)O2 (stereo unspecified) | 6 | -11% | -32 | 5 | -8.2
CCn1c(CCn2c3ccccc3c3ccccc32)n[nH]c1=S | 0 | 0% | -7 | 3 | -1.5
O=C(c1cccc([N+](=O)[O-])c1)c1ccc2c(c1)OCCOCCOCCOCCO2 | -10 | 1% | . | . | -1.4
O=S(=O)(Nc1ccccc1Cl)c1ccc(F)cc1 | -13 | 1% | -29 | 3 | 1.8
Cc1cccc(/C=N/c2sc3c(c2C#N)CCN(Cc2ccccc2)C3)c1O | 0 | 7% | -50 | -4 | -4.6
O=C(Nc1ccc2nc(-c3ccccn3)c(-c3ccccn3)nc2c1)N1CCOCC1 | 3 | -4% | . | 4 | -144

3 entries out of the list, ordered by heavy-atom count, largest number first.
SMILES | Mtb betalactam | Mtb growth | YopH inh | Arbovirus anti | RecA splice inh | others
Cc1ccccc1C(=O)N1CCN(c2ccc(NC(=O)c3ccc4c(c3)OCCO4)cc2)CC1 | -9 | . | . | . | -8.1
O=C(Nc1ccc(C(=O)Nc2ccccc2Cl)cc1)c1cccnc1 | -1 | . | . | . | -1.2
O=S(=O)(Nc1ccccc1Cl)c1ccc(F)cc1 | -13 | 1% | -29 | 3 | 1.8

Next entries follow.
SMILES | Mtb betalactam | Mtb growth | YopH inh | Arbovirus anti | RecA splice inh | others
Cc1cccc(C2N(c3nccs3)C(=O)C3CCCN32)c1 (stereo unspecified) | 0 | -13% | -37 | 3 | -2.7
CCOC(=O)c1c(C)n(C)c2ccc(OC)c(NC(=O)CN3CCC(C(=O)OCC)CC3)c12 | -2 | -6% | . | . | 1.5
Cc1cc(C)cc(NC(=O)C/C(N)=N/O)c1 | -14 | 37% | -29 | -2 | -0.3
Cc1ccc(-c2ccc(=O)n(CCC(=O)N3CCC4(CC3)OCCO4)n2)cc1 | -5 | 4% | . | 8 | -3.9
COc1cc(/C=C2\SC(=O)N(Cc3ccc(F)cc3)C2=O)cc([N+](=O)[O-])c1O | . | -19% | . | 8 | .
Cc1ccc(C(C(=O)NCC2CCCO2)N(C(=O)c2snc(C(N)=O)c2N)c2ccc(C)c(C)c2)o1 (stereo unspecified) | -1 | . | . | . | -0.9
O=C(c1cc(-c2ccccc2O)on1)N1CCCCCC1 | 4 | . | . | . | 0.4
CS/C(=N\NC(N)=O)c1ccccc1 | -9 | 2% | -25 | 10 | -1.5
CN1C(=O)C(C)(C)c2cc(S(=O)(=O)N3CCC(C(=O)NCc4ccc(Cl)cc4)CC3)ccc21 | -7 | . | . | . | 0.8
COC(=O)C1=CO[C@H](C)[C@H]2CN3CC[C@@]4(C(=O)Nc5ccccc54)[C@@H]3C[C@H]12 | -5 | 1% | . | . | -0.3
O=C(OCc1nnc(-c2ccccc2)o1)c1cn(-c2ccccc2)nc1-c1ccccc1 | -4 | 12% | -37 | 7 | 3.6
CCOc1ccccc1C(=O)Nc1nnc(C(C)C)s1 | 2 | 4% | -33 | 8 | 1.5 | Arbovirus anti repeat=9
C=CCn1c(SCc2cc(=O)n3ccsc3n2)nc2sc(C)c(C)c2c1=O | -3 | -9% | . | . | -0.5
O=C(N/C(=C/c1cn(-c2ccccc2)nc1-c1ccccc1)C(=O)N1CCOCC1)c1ccc(Cl)cc1Cl | 5 | 1% | -23 | -9 | -3.5
COc1ccc(C(=O)/C(C#N)=N/Nc2ccc([N+](=O)[O-])cc2)cc1 | 21 | 88% | . | -21 | -3.0
Cc1cc(C)n(CC(=O)Nc2ccc3c(c2)OCO3)c(=O)c1C#N | -4 | . | . | . | -0.1
O=[N+]([O-])c1ccc(/C=N/Nc2ncccc2[N+](=O)[O-])s1 | 96 | . | . | . | 0.2
CC(C)OC(=O)c1cc2c(ccn2C)n1CC(=O)N(Cc1ccccc1)c1ccc(F)cc1 | 7 | 15% | 22 | -22 | 4.3
CSc1ncccc1C(=O)OCC(=O)Nc1cc(C(F)(F)F)ccc1N1CCOCC1 | 5 | 1% | 1 | 9 | .
O=C(Oc1cccc(NC(=O)c2ccco2)c1)c1cccc(S(=O)(=O)N2CCCCC2)c1 | -9 | -5% | 20 | 12 | 8.1
CN(CCCN1CCCCC1)C(=O)c1cc(COc2ccc(F)cc2F)on1 | ? | . | . | . | -1.5
CCCCc1cc(=O)oc2c(CN3CCN(C)CC3)c(O)ccc12 | -5 | . | . | . | -137
CN1CCC23c4ccccc4NC1C21CCN(C)C3Nc2ccccc21 | -5 | -7% | . | . | -2.7
COc1cccc(CNCCO)c1OCc1ccccc1 | 0 | -3% | . | 5 | 4.0
CCOC(=O)Cc1csc(NC(=O)c2ccc3ncsc3c2)n1 | -7 | . | . | . | 1.9
COc1ccc(-c2nn(-c3ccccc3)cc2C(=O)N2CCOCC2)cc1 | 3 | -9% | -11 | 5 | -2.9
COc1ccc(C(C)=O)cc1CSc1nc(C)cc(C)n1 | -3 | 8% | . | 3 | 2.1
